# Screening data as filed in PubChem.
# MLL AF4-AF9 inh – MLL-AF4/AF9 protein interaction inhibition. P42568. AlphaScreen, biotin-AF4 peptide binding to FLAG-AF9. AID 651704. 350,000 compounds, 0.47% hits. inhibition, % at 10 µM;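 active means every replicate reaching a set inhibition limit, whatever the replicate mean, cut at about 25% in these data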;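 further: 0% = plate neutral control median and 100% = total signal loss; the record names both 10 and 1 µM as test concentration; the first replicate is given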
# Target sequence (P42568 whole entry, looked up): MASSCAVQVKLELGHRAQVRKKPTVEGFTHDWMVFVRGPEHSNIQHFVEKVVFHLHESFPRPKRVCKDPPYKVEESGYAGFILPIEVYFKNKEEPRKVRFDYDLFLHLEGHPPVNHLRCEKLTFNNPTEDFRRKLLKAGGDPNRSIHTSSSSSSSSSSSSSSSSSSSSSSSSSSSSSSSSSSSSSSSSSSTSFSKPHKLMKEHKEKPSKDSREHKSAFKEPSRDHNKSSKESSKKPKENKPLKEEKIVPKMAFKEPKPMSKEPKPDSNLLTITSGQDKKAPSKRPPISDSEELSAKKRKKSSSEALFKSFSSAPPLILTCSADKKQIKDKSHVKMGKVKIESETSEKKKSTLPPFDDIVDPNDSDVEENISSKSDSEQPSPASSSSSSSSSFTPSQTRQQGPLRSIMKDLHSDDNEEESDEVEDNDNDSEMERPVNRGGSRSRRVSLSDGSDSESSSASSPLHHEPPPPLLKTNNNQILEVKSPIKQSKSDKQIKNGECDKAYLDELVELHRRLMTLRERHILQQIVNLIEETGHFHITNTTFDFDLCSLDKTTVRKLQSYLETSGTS
# FGF22 binding – FGF22 (human) thermal shift binding; Q9HCT0; recombinant FGF22 thermal shift, SYPRO orange fluorescence; percent of sucrose octasulfate shift, DMSO zero; 340,000 compounds, 1.5% hits; calls only at 9.99 µM; AID 651658;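 active means melting point raised past a set limit in the mean and every replicate; three in four hits are not shown here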
# Target sequence (Q9HCT0 whole entry, looked up): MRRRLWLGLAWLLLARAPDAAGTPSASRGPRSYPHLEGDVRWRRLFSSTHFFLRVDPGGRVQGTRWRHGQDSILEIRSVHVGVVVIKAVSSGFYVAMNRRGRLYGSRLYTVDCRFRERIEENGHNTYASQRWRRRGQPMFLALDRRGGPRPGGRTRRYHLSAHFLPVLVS
# rRNA inh HTS – inhibits bacterial ribosomal RNA function over humanized ribosomes. E. coli WT GFP vs humanized-ribosome RFP mutants, fluorescence, 24 h; active compounds read low; DMSO median 0, no signal -100. GFP signal change (wild-type ribosome), % (concentration not given with the values). 350,000 compounds, 1.6% hits;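 active means significant combined selectivity score with lowered wild-type GFP, culture density cut under 30%, mutant RFP and density less affected; inactive means any of these conditions unmet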; further: one replicate is shown; some compounds called inactive have numbers as strong as hits
# rRNA inh HTS OD600 – recorded beside rRNA inh HTS, whose call it bears; OD600 change, %; measured here: OD600 growth;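 optical density of the mix in the first replicate; 0 = DMSO median and -100 = no signal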
# rRNA inh HTS RFP – recorded beside rRNA inh HTS, whose call it bears; RFP signal change, %; measured here: RFP humanized mutant strains;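 first replicate; 0 = DMSO median and -100 = no signal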
# An asterisk follows results filed as active; i = inactive; & = joins results of further samples. Not all compounds are listed; count on the stated rates, not on these rows.
MLL AF4-AF9 inh	FGF22 binding	rRNA inh HTS	rRNA inh HTS OD600	rRNA inh HTS RFP	structure
0.7	i	-7	-11	0.6	CC(C)NC(=O)N(C)C[C@H]1Oc2c(NC(=O)c3nc4ccccc4s3)cccc2C(=O)N([C@H](C)CO)C[C@H]1C
-1.3	i	2	8	-3.3	COCC#Cc1cnc2c(c1)C(=O)N([C@@H](C)CO)C[C@H](C)[C@@H](CN(C)C(=O)C1CCCCC1)O2
-7.4	i	0	-4	-3.8	CC(C)NC(=O)N1C[C@@H]2[C@H](c3ccccc31)[C@@H](CO)N2C(=O)C1CCCC1
-0.5	i	4	-5	-0.5	CC(=O)N1[C@@H]2Cn3c(ccc(-c4cccc(F)c4)c3=O)[C@H]1[C@@H](C(=O)NCC1CC1)[C@@H]2CO
7.0	i	2	-4	12	CNC[C@H]1Oc2cc(C#Cc3cccc(OC)c3)ccc2S(=O)(=O)N([C@@H](C)CO)C[C@@H]1C
-0.5	i	10	9	22	O=C(C[C@H]1CC[C@@H]2[C@H](COC[C@@H](O)CN2C(=O)C2CCOCC2)O1)NCc1ccncc1
-2.0	i	3	-1	0.2	COc1ccc(S(=O)(=O)Nc2ccc3c(c2)C(=O)N([C@@H](C)CO)C[C@@H](C)[C@H](CN(C)C(=O)CCCN(C)C)OCCCC[C@@H](C)O3)cc1
-2.7	i	0	3	0.7	COc1ccc(CNC(=O)C[C@@H]2C=C[C@@H](NC(=O)Nc3ccc4c(c3)OCO4)[C@@H](CO)O2)cc1
-5.0	i	4	11	19	COc1cccc(-c2cnc3c(NC=O)cc(-c4ccc(OC)cc4OC)cn23)c1
-3.2	i	-2	-6	-1.7	C[C@@H]1CN([C@H](C)CO)C(=O)c2cc(-c3ccc(C(=O)N(C)C)cc3)cnc2O[C@H]1CN(C)C(=O)c1ccncc1
-11	i	-1	-1	-0.8	COc1ccccc1S(=O)(=O)N(C)C[C@H]1OCc2cn(nn2)CCCC(=O)N([C@H](C)CO)C[C@H]1C
-3.7	i	2	7	-5.5	CC(C)[C@@H](C)NC(=O)N(C)C[C@H]1OCc2ccccc2-c2ccccc2C(=O)N([C@@H](C)CO)C[C@H]1C
-0.1	i	-3	-12	3.6	O=C(NC1CCC1)[C@H]1[C@H](CO)[C@H]2Cn3c(ccc(-c4ccc(F)cc4)c3=O)[C@H]2N1Cc1ccccn1
-2.7	i	-3	1	2.0	C[C@@H]1CN([C@@H](C)CO)C(=O)c2cccc(NC(=O)C3CCCCC3)c2O[C@H]1CN(C)Cc1ccc(Cl)c(Cl)c1
2.9	i	3	13	0.2	C[C@@H]1CN([C@@H](C)CO)C(=O)c2cccc(NC(=O)c3ccncc3)c2O[C@H]1CN(C)Cc1ccc(C(=O)O)cc1

# Full records, quoted from the list:
# C[C@@H]1CN([C@@H](C)CO)C(=O)c2cccc(NC(=O)c3ccncc3)c2O[C@H]1CN(C)Cc1ccc(C(=O)O)cc1 is entered as MLL AF4-AF9 inh = 2.9; FGF22 binding = i; rRNA inh HTS = 3; rRNA inh HTS OD600 = 13; rRNA inh HTS RFP = 0.2
# COCC#Cc1cnc2c(c1)C(=O)N([C@@H](C)CO)C[C@H](C)[C@@H](CN(C)C(=O)C1CCCCC1)O2 is entered as MLL AF4-AF9 inh = -1.3; FGF22 binding = i; rRNA inh HTS = 2; rRNA inh HTS OD600 = 8; rRNA inh HTS RFP = -3.3

# The list goes on:
MLL AF4-AF9 inh	FGF22 binding	rRNA inh HTS	rRNA inh HTS OD600	rRNA inh HTS RFP	structure
-2.4	i	5	-2	-3.0	C[C@@H]1CN([C@H](C)CO)C(=O)c2cc(C#CC3CCCC3)cnc2O[C@@H]1CN(C)C(=O)C1CC1
-4.6	i	-2	-9	0.9	C[C@@H]1CN([C@H](C)CO)C(=O)c2cccc(N(C)C)c2O[C@H]1CN(C)Cc1ccncc1
0.1	i	1	-2	-1.1	CNC[C@H]1Oc2ccc(NC(=O)c3ccncc3)cc2C(=O)N([C@H](C)CO)C[C@@H]1C
-1.6	i	18	15	24	Clc1ccc(-c2nc3c4ccccc4ccn3c2Cc2ccsc2)cc1
-0.4	i	6	10	1.2	Cc1noc(C)c1S(=O)(=O)Nc1cccc2c1O[C@@H](CN(C)S(=O)(=O)c1cn(C)cn1)[C@@H](C)CN([C@@H](C)CO)C2=O
1.8	i	-1	-4	-3.7	CC(=O)N1CCc2cc(NC(=O)C3(C)CCN3Cc3ccc(C(C)C)cc3)ccc21 (centres undefined)
-2.2	i	2	10	0.4	C[C@H](CO)N1C[C@H](C)[C@@H](CN(C)Cc2ccncc2)Oc2ncc(-c3cncnc3)cc2C1=O
-3.2	i	5	2	-1.1	CO[C@@H]1CN(C)C(=O)c2ccc(NS(=O)(=O)c3ccccc3F)cc2OC[C@H](C)NC[C@H]1C
-2.2	i	3	7	0.3	Cc1noc(C)c1NC(=O)N(C)C[C@@H]1OCCCC[C@@H](C)Oc2ccc(NC(=O)NC(C)C)cc2C(=O)N([C@H](C)CO)C[C@H]1C
3.5	i	-3	12	-1.5	O=C(C[C@@H]1CC[C@H](NC(=O)c2cccc(F)c2)[C@@H](CO)O1)NCCN1CCCC1
-0.3	i	1	-1	-1.2	C[C@@H](NC(=O)C[C@H]1CC[C@@H](NC(=O)c2cccnc2)[C@@H](CO)O1)c1ccccc1
0.5	i	-9	-13	2.3	O=[N+]([O-])c1ccc(NCCCc2ccccc2)cc1
1.3	i	-1	-6	-0.2	CCC(=O)Nc1ccc2c(c1)C(=O)N(C)[C@H]1CC[C@@H](CC(=O)NCc3ccccc3)O[C@H]1CO2
1.9	i	2	2	-1.0	O=C(CN1CCOCC1)NCC[C@@H]1CC[C@@H](NS(=O)(=O)c2ccc(Cl)cc2)[C@H](CO)O1
-1.7	i	-3	0	-0.2	CO[C@H]1CN(C)C(=O)c2cc(NS(=O)(=O)c3cn(C)cn3)ccc2OC[C@@H](C)N(CCC(F)(F)F)C[C@@H]1C

# (next part)
MLL AF4-AF9 inh	FGF22 binding	rRNA inh HTS	rRNA inh HTS OD600	rRNA inh HTS RFP	structure
-1.3	i	12	16	-2.6	CN(Cc1ccc(Cl)cc1)C(CCc1ccccc1)C(=O)NC1CCCCC1 (centres undefined)
0.4	i	3	-2	-0.7	C[C@H](CO)N1C[C@H](C)[C@@H](CN(C)S(C)(=O)=O)Oc2ccc(NC(=O)C3CC3)cc2CC1=O
-2.0	i	-1	-11	-0.9	C[C@H](CO)N1C[C@H](C)[C@@H](CN(C)C(=O)C2CCC2)Oc2cc(C#CC(C)(C)O)ccc2S1(=O)=O
-5.8&-2.5	i	0&4	14&-1	-0.6&2.3	Cc1ccccc1S(=O)(=O)NCC[C@@H]1CC[C@@H](NC(=O)C2CCCC2)[C@@H](CO)O1
-0.5	i	12	8	0.4	COCC(=O)N[C@H]1CC[C@@H](CC(=O)OC)O[C@@H]1CO
-2.8	i	2	0	-1.6	CC(C)NC(=O)N(C)C[C@@H]1Oc2cc(C#C[C@@H](C)O)ccc2S(=O)(=O)N([C@H](C)CO)C[C@@H]1C
-2.1	i	-3	-1	-1.4	C[C@H](CO)N1C[C@H](C)[C@@H](CN(C)Cc2ccc(C(F)(F)F)cc2)Oc2c(NC(=O)Nc3ccc(C(F)(F)F)cc3)cccc2C1=O
4.0	i	1	7	24	N#CC(C#N)=C1SC(=Nc2ccccc2)C(=Nc2ccccc2)N1c1ccccc1
3.1	i	3	-12	5.4	C[C@H]1CN([C@@H](C)CO)C(=O)Cc2cc(NC(=O)Nc3ccc(C(F)(F)F)cc3)ccc2O[C@@H]1CN(C)C(=O)Nc1ccccc1
-1.2&-17	i	22&-3	10&-10	1.4&-0.1	COc1ccc(NC(=O)N(C)C[C@@H]2Oc3ncc(Br)cc3C(=O)N([C@@H](C)CO)C[C@@H]2C)cc1
1.2	i	1	2	0.1	O=C(N[C@H]1CC[C@H](CCNC(=O)C2CCOCC2)O[C@@H]1CO)c1ccncc1
-4.6	i	2	-6	-1.1	COc1ccc(CN(C)C[C@@H]2Oc3c(NC(=O)Nc4ccc(OC)cc4)cccc3C(=O)N([C@H](C)CO)C[C@@H]2C)cc1
9.2	i	-9	-17	1.0	C[C@@H]1CN([C@@H](C)CO)C(=O)c2cccc(NC(=O)c3ccc(-c4nccs4)cc3)c2O[C@@H]1CN(C)C(=O)Nc1ccc2c(c1)OCO2
-1.3	i	0	-1	-0.9	COc1ccc2c3c([nH]c2c1)[C@@H](CO)N(C(=O)C1CCCC1)CC31CCN(C(=O)NC(C)C)CC1
-14	i	0	1	2.1	COc1ccc(C(=O)N2C[C@H]3[C@@H](c4ccccc42)[C@H](CO)N3C(=O)Cc2ccccn2)cc1

# Following part.
MLL AF4-AF9 inh	FGF22 binding	rRNA inh HTS	rRNA inh HTS OD600	rRNA inh HTS RFP	structure
0.9	i	6	13	2.2	C[C@@H]1CCCCO[C@H](CN(C)C(=O)Nc2cccc3ccccc23)[C@@H](C)CN([C@@H](C)CO)C(=O)c2cc(NC(=O)c3ccccc3)ccc2O1
0.8	i	0	17	3.8	C[C@H]1CN([C@@H](C)CO)C(=O)c2cc(NC(=O)Cc3cn(C)c4ccccc34)ccc2O[C@H]1CN(C)S(=O)(=O)c1ccccc1
-2.0	i	0	-13	6.1	O=C(NCCOc1ccccc1)c1cccc(S(=O)(=O)N2CCN(Cc3ccccc3)CC2)c1
-1.2	i	3	11	-2.4	C[C@@H]1CN([C@@H](C)CO)C(=O)Cc2cc(NS(=O)(=O)c3ccc(F)cc3)ccc2O[C@@H]1CN(C)C(=O)NC1CCCCC1
-3.1	i	3	1	-2.3	CO[C@H]1CN(C)C(=O)c2cc(NS(=O)(=O)c3cccc(C)c3)ccc2OC[C@@H](C)NC[C@@H]1C
-5.1	i	5	10	-1.1	C[C@H](CO)N1C[C@H](C)[C@@H](CN(C)CC2CCCC2)OCc2cn(nn2)CCCC1=O
0.3	i	3	-5	4.4	C[C@@H]1CN([C@@H](C)CO)C(=O)Cc2cc(NC(=O)Nc3ccc(F)cc3)ccc2O[C@@H]1CN(C)CC1CCCCC1
9.7	i	-2	0	0.6	COc1ccccc1-c1cnc2c(c1)C(=O)N([C@H](C)CO)C[C@H](C)[C@@H](CN(C)Cc1cccc(F)c1)O2
-0.6	i	0	5	-1.9	O=C(N[C@H]1CC[C@@H](CCNC(=O)C2CCOCC2)O[C@@H]1CO)c1ccncc1
-2.2	i	3	12	1.3	C[C@@H]1CN([C@H](C)CO)C(=O)c2cc(NC(=O)Nc3ccccc3)ccc2O[C@@H](C)CCCCO[C@@H]1CN(C)S(=O)(=O)c1ccc(Cl)cc1
2.1	i	-1	-5	0.7	COCC#Cc1ccc2c(c1)O[C@@H](CN(C)C)[C@H](C)CN([C@@H](C)CO)S2(=O)=O
0.4	i	-4	-3	-1.5	C[C@@H]1CCCCO[C@@H](CN(C)C(=O)Nc2ccccc2)[C@H](C)CN([C@@H](C)CO)C(=O)c2cc(NC(=O)c3ccccc3)ccc2O1
1.5	i	4	1	-0.4	O=C(C[C@H]1CC[C@H]2[C@@H](COC[C@H](O)CN2S(=O)(=O)c2cccc(F)c2)O1)NC1CCC1
3.8	i	0	2	-1.0	C[C@H](CO)N1C[C@H](C)[C@H](CN(C)C(=O)Nc2ccnc(N3CCOCC3)c2)OCc2cn(nn2)CCCC1=O
5.9	i	-3	-3	3.1	Cc1ccc(S(=O)(=O)N(C)C[C@@H]2OCCCC[C@H](C)Oc3ccc(NS(=O)(=O)c4cn(C)cn4)cc3C(=O)N([C@H](C)CO)C[C@@H]2C)cc1

# Additional results follow.
MLL AF4-AF9 inh	FGF22 binding	rRNA inh HTS	rRNA inh HTS OD600	rRNA inh HTS RFP	structure
36*	i	-56	-77	-18	CN(C)CCNC(=O)c1cccc(-c2cc(NC=O)c3ncc(-c4cccc(C(F)(F)F)c4)n3c2)c1
6.3	i	-12	-21	7.3	COC(=O)[C@@]12C[C@@H](CC(=O)N3CCN(C(=O)C4CC4)CC3)C(=O)N(Cc3cccc4ccccc34)C1=CCC(C)(C)C2
-0.9	i	-1	2	-0.2	O=C(C1CC1)N1CC[C@@H]2[C@@H](CO)Nc3ccc(Br)cc3[C@@H]21
-0.1	i	-27	-26	-0.2	Cc1cc(C)c(CN2CCN(C(=O)CC[C@H]3O[C@@H](n4cnc5c(NC(=O)c6ccccc6)ncnc54)[C@H](O)[C@@H]3O)CC2)c(C)c1

# 2 of the compounds above, with tabs:
Molecule	MLL AF4-AF9 inh	FGF22 binding	rRNA inh HTS	rRNA inh HTS OD600	rRNA inh HTS RFP
O=C(C1CC1)N1CC[C@@H]2[C@@H](CO)Nc3ccc(Br)cc3[C@@H]21	-0.9	i	-1	2	-0.2
Cc1cc(C)c(CN2CCN(C(=O)CC[C@H]3O[C@@H](n4cnc5c(NC(=O)c6ccccc6)ncnc54)[C@H](O)[C@@H]3O)CC2)c(C)c1	-0.1	i	-27	-26	-0.2
